LDHA block – qHTS assay for inhibitors of human lactate dehydrogenase. L-lactate dehydrogenase A chain (Homo sapiens), P00338. activity change, % (values are at about 110 or 230 µM). purified LDHA, NADH/diaphorase-resazurin fluorescence; active compounds read low. hit rate 0.15% among 480,000. AID 1347041, 2019; in the data active means activity change below about -30%; inconclusive means mostly about -25% to -30%;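 further: plate controls were DMSO wells for no effect and wells without enzyme for full effect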
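Enzyme activity of human lactate dehydrogenase 5 (2 nM; 0.06 mM NADH, 0.2 mM pyruvate, 5 min, RT) is measured via a resazurin/diaphorase fluorescence readout of residual NADH.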
Glioma ERSR ind – qHTS for Inducers of the Endoplasmic Reticulum Stress Response (ERSR) in Human Glioma: qHTS | U87-MG GRP78 promoter luciferase reporter, 16 h | Potency, µM, inactives show at the top dose activation, usual class: activators | hit rate 0.02% among 420,000; further: potency means the concentration at half of the fitted maximal effect; series mostly up to about 76 µM; % of control where 0% means no effect; nearly all actives have a fitted effect of over 35% in size
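Stably transfected U87-MG human glioma cells carrying a GRP78-based luminescent sensor were seeded at 1000 cells/well, pin-dosed with compounds and incubated 16 h. Luciferase reagent was then added, and end-point luminescence was read after 10 min at room temperature.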
Vif-A3G inh – qHTS for Inhibitors of Vif-A3G Interactions: qHTS | HeLa A3G-eYFP + Vif (tagged APOBEC3G with the HIV-1 protein that degrades it), YFP fluorescence, overnight | hit rate 0.076% among 410,000 | DNA dC->dU-editing enzyme APOBEC-3G (Homo sapiens), Q9HC16 | AID 602310, 2012 | Potency, µM (series often up to 46.1 µM), without a hit: at the highest dose activity, negative = active, actives largely listed as inhibitors;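 further: potency means the concentration at half of the fitted maximal effect; on the % scale 0 is the no-effect control and ±100 the full control effect; nearly all actives have a fitted effect of over 60% in size; hits raise eYFP signal because A3G escapes Vif-driven loss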
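Read-out is eYFP fluorescence (Ex 488/Em 500-530) from Vif-expressing HeLa A3G-eYFP cells; more signal means A3G escaped Vif-mediated degradation. Cells plated overnight, compound pinned in, incubated overnight at 37 deg C.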
RXFP1 agonist – qHTS Assay for Agonists of the Relaxin Receptor RXFP1; HEK293T-RXFP1 cAMP TR-FRET, 30 min; response scale: percent of porcine relaxin response, buffer zero; Potency, µM (series often up to 57.5 µM), for inactives: top-dose activation, actives largely listed as activators; hit rate 0.3% among 370,000; AID 2676, 2010; further: potency means the concentration at half of the fitted maximal effect; on the % scale 0 is the no-effect control and ±100 the full control effect; nearly all actives have a fitted effect of over 60% in size; many of its hits are not listed in these tables
Target sequence (Q9HBX9 whole entry, looked up): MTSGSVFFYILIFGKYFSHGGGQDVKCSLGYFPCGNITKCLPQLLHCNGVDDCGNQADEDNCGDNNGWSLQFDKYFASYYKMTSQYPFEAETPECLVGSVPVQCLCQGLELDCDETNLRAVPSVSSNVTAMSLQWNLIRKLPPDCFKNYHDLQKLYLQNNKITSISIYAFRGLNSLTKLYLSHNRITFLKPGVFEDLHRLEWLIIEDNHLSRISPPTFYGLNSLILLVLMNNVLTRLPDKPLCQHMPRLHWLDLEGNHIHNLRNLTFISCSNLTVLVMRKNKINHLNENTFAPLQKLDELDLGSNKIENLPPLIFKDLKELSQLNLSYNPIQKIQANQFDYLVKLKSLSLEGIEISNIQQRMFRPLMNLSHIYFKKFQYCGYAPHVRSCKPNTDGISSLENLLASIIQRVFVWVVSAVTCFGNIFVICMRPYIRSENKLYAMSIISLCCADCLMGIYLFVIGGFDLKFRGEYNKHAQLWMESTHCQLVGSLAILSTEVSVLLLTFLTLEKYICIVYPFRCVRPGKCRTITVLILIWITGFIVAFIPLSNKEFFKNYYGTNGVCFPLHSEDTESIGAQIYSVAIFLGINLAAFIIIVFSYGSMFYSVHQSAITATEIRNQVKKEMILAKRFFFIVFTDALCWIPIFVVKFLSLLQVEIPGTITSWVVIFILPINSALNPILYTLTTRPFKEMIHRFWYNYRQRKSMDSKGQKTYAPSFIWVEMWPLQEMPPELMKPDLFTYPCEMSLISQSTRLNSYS
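Agonist response is measured as cAMP accumulation in an RXFP1-transfected HEK293T line under PDE4 inhibition. Values are scaled between buffer-only and 29 nM porcine relaxin, and EC50s come from standard Hill equation fits.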
Vif-A3F inh – qHTS for Inhibitors of Vif-A3F Interactions: qHTS | Potency, µM (doses to about 46.1 µM), for the others: top-dose activity, negative = active | hit rate 0.2% among 390,000 | HeLa A3F-eYFP + Vif (tagged APOBEC3F with the HIV-1 protein that degrades it), YFP fluorescence increase | AID 602313, 2012; further: potency means the concentration at half of the fitted maximal effect; % of control where 0% means no effect; nearly all actives have a fitted effect of over 65% in size
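Fluorescence increase (Ex 488/Em 500-530) after overnight compound treatment at 37 deg C flags inhibition of Vif-driven A3F-eYFP loss in stable HeLa A3F-eYFP/Vif cells seeded overnight beforehand.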
Active calls of the source: *; ? = inconclusive; · = no result given; & = joins results of further samples. Unless noted, the call rests on the fitted dose curve; in most records, active means well fitted curve in the direction sought with a large enough effect; inconclusive means small, poorly fitted or top-dose-only effect, or another doubt; inactive means no such curve, though single readings can be large; an effect the other way counts as inactive or inconclusive. Only part of the results is shown, so the mix of outcomes need not match the whole.

1	CN(C)c1ccc(O)c2c1CC1CC3[C@@H](N(C)C)C(=O)C(C(N)=O)=C(O)[C@]3(O)C(=O)C1=C2O (stereo not given in full)
2	CN(C)c1ccc(O)c2c1C[C@@H]1C[C@H]3C(N(C)C)C(=O)C(C(N)=O)=C(O)[C@@]3(O)C(=O)C1=C2O (stereo not given in full)
3	O=C(O)C1=CC(O)[C@@H](O)C(O)C1 (stereo not given in full)
4	CC(C)NC[C@@H](O)COc1cccc2ccccc12
5	CCc1ccc(C(c2ccc(CC)cc2)C(Cl)Cl)cc1
6	CCCC1C(=O)N2C(N(C)C)=Nc3ccc(C)cc3N2C1=O (stereo not given)
7	CCC[C@H]1C(=O)N2C(N(C)C)=Nc3ccc(C)cc3N2C1=O
8	N[C@@H](CC(=O)O)C(=O)O

assay / entry	1	2	3	4	5	6	7	8
Vif-A3G inh	5%	·	·	-3%	-1%	2%	·	·
LDHA block	35	·	·	-5	-3	-2	·	·
Vif-A3F inh	7%	·	·	0%	-5%	11%	·	·
RXFP1 agonist	5.6%	·	·	-0.8%	-0.5%	0.1%	·	·
Glioma ERSR ind	-2%	-7%	0%	-2%&-1%&-6%&-3%&-4%&-5%&-5%&-3%	-3%	-1%	4%	-4%&-2%&-3%

In another format: 4 of the compounds above
[1] CN(C)c1ccc(O)c2c1CC1CC3[C@@H](N(C)C)C(=O)C(C(N)=O)=C(O)[C@]3(O)C(=O)C1=C2O (stereo not given in full)
  Vif-A3G inh: 5%
  LDHA block: 35
  Vif-A3F inh: 7%
  RXFP1 agonist: 5.6%
  Glioma ERSR ind: -2%

[2] CN(C)c1ccc(O)c2c1C[C@@H]1C[C@H]3C(N(C)C)C(=O)C(C(N)=O)=C(O)[C@@]3(O)C(=O)C1=C2O (stereo not given in full)
  Vif-A3G inh: ·
  LDHA block: ·
  Vif-A3F inh: ·
  RXFP1 agonist: ·
  Glioma ERSR ind: -7%

[3] O=C(O)C1=CC(O)[C@@H](O)C(O)C1 (stereo not given in full)
  Vif-A3G inh: ·
  LDHA block: ·
  Vif-A3F inh: ·
  RXFP1 agonist: ·
  Glioma ERSR ind: 0%

[4] CC(C)NC[C@@H](O)COc1cccc2ccccc12
  Vif-A3G inh: -3%
  LDHA block: -5
  Vif-A3F inh: 0%
  RXFP1 agonist: -0.8%
  Glioma ERSR ind: -2%&-1%&-6%&-3%&-4%&-5%&-5%&-3%

Next part.
9	CCN1CCN(c2cc3c(cc2F)c(=O)c(C(=O)O)cn3C2CC2)CC1
10	COc1ccc(C2Sc3ccccc3N(CCN(C)C)C(=O)C2OC(C)=O)cc1 (stereo not given)
11	CNCCC(Oc1ccccc1C)c1ccccc1 (stereo not given)
12	NCC(=O)O
13	O=C(O)CC(O)(CC(=O)O)C(=O)O
14	CC(C)NC[C@H](O)COc1cccc2ccccc12
15	CC(=O)[C@]1(O)Cc2c(O)c3c(c(O)c2[C@@H](O[C@H]2C[C@H](N)[C@H](O)[C@H](C)O2)C1)C(=O)c1ccccc1C3=O
16	Cc1ccc(CSc2nc(N)cc(=O)[nH]2)cc1
17	CO/N=C(\C(=O)N[C@@H]1C(=O)N2C(C(=O)O)=C(CSc3nc(=O)c(O)nn3C)CSC12)c1csc(N)n1 (stereo not given in full)

assay / entry	9	10	11	12	13	14	15	16	17
Vif-A3G inh	-1%	·	·	·	2%	0%	?	1%	·
LDHA block	-8	·	·	·	-2	0	1	-3	·
Vif-A3F inh	-4%	·	·	·	6%	-3%	14%	8%	·
RXFP1 agonist	5.5%	·	·	·	·	·	·	0.2%	·
Glioma ERSR ind	-4%&-4%	1%	-2%&-4%	5%&-3%	-2%&-4%&-4%	-3%&-4%&-3%&-2%&-3%	-14%&-7%&-6%	10%	-3%

Entries of single compounds from above. Values in the order: Vif-A3G inh, LDHA block, Vif-A3F inh, RXFP1 agonist, Glioma ERSR ind
`CCN1CCN(c2cc3c(cc2F)c(=O)c(C(=O)O)cn3C2CC2)CC1` in the list: -1%, -8, -4%, 5.5%, -4%&-4%
`CC(=O)[C@]1(O)Cc2c(O)c3c(c(O)c2[C@@H](O[C@H]2C[C@H](N)[C@H](O)[C@H](C)O2)C1)C(=O)c1ccccc1C3=O` in the list: ?, 1, 14%, ·, -14%&-7%&-6%
`CC(C)NC[C@H](O)COc1cccc2ccccc12` in the list: 0%, 0, -3%, ·, -3%&-4%&-3%&-2%&-3%
`O=C(O)CC(O)(CC(=O)O)C(=O)O` in the list: 2%, -2, 6%, ·, -2%&-4%&-4%
`Cc1ccc(CSc2nc(N)cc(=O)[nH]2)cc1` in the list: 1%, -3, 8%, 0.2%, 10%

Screens from PubChem BioAssay.
